# Cruzain noTriton: blocks cruzain activity in detergent-free assay | P25779 | purified cruzain, Z-FR-AMC fluorescence, no detergent | Potency, µM, without a hit: max response, negative = inhibition, usual class: inhibitors | 200,000 compounds, 2.3% hits; active = well fitted curve in the direction sought with a large enough effect; inconclusive = small, poorly fitted or top-dose-only effect, or another doubt; inactive = no such curve, though single readings can be large; an effect the other way counts as inactive or inconclusive;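 note: plate controls were enzyme without inhibitor for no effect and buffer without enzyme for full effect; nearly all actives have a fitted effect of over 40% in size; top concentration of the series not given in the record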
# Target sequence (P25779 123-467 limits assumed): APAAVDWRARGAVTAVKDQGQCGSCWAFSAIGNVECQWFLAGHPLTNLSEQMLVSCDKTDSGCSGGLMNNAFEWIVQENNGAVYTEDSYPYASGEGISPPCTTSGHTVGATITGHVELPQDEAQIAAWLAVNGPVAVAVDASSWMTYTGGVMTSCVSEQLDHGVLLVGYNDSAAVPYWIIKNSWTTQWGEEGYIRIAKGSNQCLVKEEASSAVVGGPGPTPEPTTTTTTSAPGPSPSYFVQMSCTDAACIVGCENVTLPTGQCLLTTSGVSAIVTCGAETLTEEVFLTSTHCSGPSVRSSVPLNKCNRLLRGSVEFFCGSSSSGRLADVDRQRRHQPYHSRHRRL
#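 Detergent-free condition (0.00005% Triton X-100) in acetate buffer pH 5.5 with DTT. 1.5 nM enzyme and compound were pre-mixed 15 min, then 2 uM Z-FR-AMC substrate added; reaction progress from fluorescence change between first and third reads (60 s).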
# SARS PLP yeast: blocks SARS-CoV papain-like protease in a yeast assay; S. cerevisiae expressing SARS-CoV PLpro, growth rescue; control for the full effect not named in the record; Potency, µM (top dose mostly 32.9 µM), without a hit: top-dose activity, positive = growth rescue; 330,000 compounds, 0.19% hits; note: 0% is about no effect; nearly all actives have a fitted effect of over 55% in size; growth read by luminescence after 48 h
# MARV entry inh: inhibitors of Marburg virus binding or cell entry. Marburg virus pseudotyped entry inhibition, cell reporter; control for the full effect not named in the record; about a third of the inactives were read at about 46 µM. Potency, µM (titrated, usually from 37.8 µM), for inactives: at the top dose activity change, negative = inhibition, hits mostly inhibitors. 300,000 compounds, 1.8% hits; active = well fitted inhibition curve with a large enough effect; inconclusive = small, poorly fitted or top-dose-only effect, or effect the other way; inactive = flat fitted curve, though single readings scatter; tested in HEK293 cells; about a fifth of its hits are not listed in these tables; note: % is set by controls: 0 for no effect and ±100 for the full control effect; luciferase read-out
# NS1 function inh: influenza NS1 inhibition; S. cerevisiae slowed by influenza A NS1, growth recovery by OD600; Potency, µM (top dose mostly 46.1 µM), for the others: at the highest dose activity, positive = more growth; 270,000 compounds, 0.4% hits; note: actives are rising curves; nearly all actives have a fitted effect of over 50% in size
#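 In this qHTS, NS1 from influenza A is expressed in budding yeast, where it slows growth. Cells are switched from glucose to 2% galactose medium (pH 6.0, -URA), treated with compound, and growth recovery is read at OD600.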
# Cruzain Triton: blocks cruzain activity in presence of Triton detergent. P25779. purified cruzain, Z-FR-AMC fluorescence, 0.01% Triton. Potency, µM, inactives show max response, negative = inhibition, actives largely listed as inhibitors. 200,000 compounds, 0.43% hits; active = well fitted curve in the direction sought with a large enough effect; inconclusive = small, poorly fitted or top-dose-only effect, or another doubt; inactive = no such curve, though single readings can be large; an effect the other way counts as inactive or inconclusive;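 note: plate controls were neutral wells for no effect and buffer without enzyme for full effect; nearly all actives have a fitted effect of over 40% in size; top concentration of the series not given in the record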
#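 Compounds were screened in titration against cruzain (1.5 nM) with 0.01% Triton X-100 to counter colloidal aggregation. Activity was the AMC fluorescence increase over 60 s after adding 2 uM Z-FR-AMC at pH 5.5.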
# 2A StopGo: lowers the luciferase signal of an FMDV 2A StopGo reporter; human cells with a luciferase reporter of 2A StopGo recoding; control for the full effect not named in the record; 410,000 compounds, 1.2% hits; Potency, µM (highest dose often 57.9 µM), inactives show at the top dose signal change, negative = less light; active = well fitted falling curve with a large enough effect; inconclusive = small, poorly fitted or top-dose-only effect; inactive = no such curve, though single readings can be large or run the other way; tested in HEK293T cells; note: % is set by controls: 0 for no effect and ±100 for the full control effect; nearly all actives have a fitted effect of over 45% in size; luciferase light after 4 h
# RE007 growth inh: less growth of the S. pombe RE007 Vpr strain; 360,000 compounds, 0.21% hits; Potency, µM (doses to about 92.2 µM), for inactives: top-dose activity change, negative = less growth; AID 651644; S. pombe RE007 Vpr strain, BacTiter-Glo ATP luminescence, 24 h; control for the full effect not named in the record; active = well fitted falling curve with a large enough effect; inconclusive = small, poorly fitted or top-dose-only effect; inactive = no such curve, though single readings can be large or run the other way;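 note: % is set by controls: 0 for no effect and ±100 for the full control effect; nearly all actives have a fitted effect of over 50% in size; the assay follows cell death caused by Vpr and the record does not say whether a fall means rescue or toxicity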
#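 Fission yeast strain RE007, carrying one chromosomally integrated HIV-1 vpr copy, was seeded at OD 0.01 in PMG+AL medium with 23 nL pinned compound. After 24 h at 30 °C and 99% humidity, viability was read by BacTiter-Glo luminescence.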
# Lassa entry inh: blocks Lassa virus binding to or entry into cells; Lassa virus pseudotype entry inhibition, cell reporter; control for the full effect not named in the record; Potency, µM (doses to about 37.9 µM), for the others: at the top dose activity change, negative = inhibition, actives largely listed as inhibitors; 300,000 compounds, 1.2% hits; active means well fitted inhibition curve with a large enough effect; inconclusive means small, poorly fitted or top-dose-only effect, or effect the other way; inactive means flat fitted curve, though single readings scatter; tested in HEK293 cells; note: % is set by controls: 0 for no effect and ±100 for the full control effect; nearly all actives have a fitted effect of over 50% in size; luciferase read-out
# Starred values were filed as active, the others as inactive; ? = inconclusive; nt = not tested or not shown; [ ] = remark or other dose. Unless noted, calls come from the whole dose curve; as a rule, active means well fitted rising curve with a large enough effect; inconclusive means small, poorly fitted or top-dose-only effect; inactive means no such curve, though single readings can be large or run the other way. Potency is the fitted concentration of half-maximal effect.
canonical_smiles	Cruzain noTriton	SARS PLP yeast	MARV entry inh	NS1 function inh	Cruzain Triton	2A StopGo	RE007 growth inh	Lassa entry inh
Cc1cc(C)cc(NC(=O)CCc2ccc(C)o2)c1	nt	-4%	nt	1%	nt	-20%	-8%	nt
O=C(Nc1ccc2c(c1)OCCO2)C1CCN(C(=O)c2ccc(Br)cc2)CC1	6%	-2%	11%	-9%	2.7%	26%	-4%	30%
O=C(O)c1cccc(S(=O)(=O)NNc2ccccc2C(F)(F)F)c1	nt	0%	7%[46.1 µM]	-1%	nt	12%	10%	1%
CCOc1ccc(-c2nc(C#N)c(N3CCN(Cc4ccccc4)CC3)o2)cc1	7%	-12%	0%	-48%	-21%	-27%	-10%	nt
CNc1cc(CS(=O)c2ccccc2)nc(-c2ccccc2)n1 (stereo not given)	-11%	2%	8%[46.1 µM]	6%	4.4%	-12%	9%	2%
Cc1ccc(C2=N/C(=C/N3CCOCC3)C(=O)O2)cc1	-25%	-4%	25%	-4%	-18%	60%[activator]	-5%	21%
COc1cc(C(=O)OCC(=O)c2cc(C)n(C)c2C)cc(NC(=O)c2ccco2)c1OC	?	8%	-63%	-12%	-5.7%	-4%	13%[3.69 µM]	-25%
Cc1sc(-c2cc3ccccc3oc2=O)nc1-c1ccc(Cl)c(Cl)c1	9%	nt	nt	nt	0.4%	-15%	nt	5%[46.1 µM]
Cc1cccc(OCCCn2c(=O)sc3ccccc32)c1	5%	-20%	-2%[46.1 µM]	-110%	-1.5%	37%[activator]	-6%	?
Cn1c(/C(C#N)=C(\O)c2ccccc2Cl)nc2ccccc21	nt	nt	?	nt	nt	-11%	17%	-15%[46.1 µM]
COC(=O)c1cc(CNC(=O)c2cccc(Cl)c2Cl)ccc1OC	9%	12%	-28%	0%	-2.6%	nt	nt	2%
CCCC(=O)Oc1ccc(N(C(=O)CCC)S(=O)(=O)c2cccs2)cc1	nt	-8%	5%[46.1 µM]	nt	nt	1%	16%	-24%
CCN(CC)S(=O)(=O)c1cc(OCC(N)=O)c(C)cc1Cl	6%	7%	?	7%	-0.9%	-12%	-8%	3%
Cc1ccccc1Oc1nc2ccccn2c(=O)c1/C=C(\C#N)c1nc2ccccc2[nH]1	20%	nt	-15%[46.1 µM]	nt	-0.5%	-22%	nt	3%[46.1 µM]
Cc1cccc(-c2c3c(=O)n(C)c(=O)n(C)c3cn2-c2cc(N)c(Cl)cc2Cl)c1	-12%	nt	?	nt	-9.0%	-27%	nt	?

# Reformatted: entries from further up
# The line under a structure holds: Cruzain noTriton | SARS PLP yeast | MARV entry inh | NS1 function inh | Cruzain Triton | 2A StopGo | RE007 growth inh | Lassa entry inh
- Cc1ccccc1Oc1nc2ccccn2c(=O)c1/C=C(\C#N)c1nc2ccccc2[nH]1
    20% | nt | -15%[46.1 µM] | nt | -0.5% | -22% | nt | 3%[46.1 µM]
- Cc1cccc(-c2c3c(=O)n(C)c(=O)n(C)c3cn2-c2cc(N)c(Cl)cc2Cl)c1
    -12% | nt | ? | nt | -9.0% | -27% | nt | ?

# New compounds follow:
canonical_smiles	Cruzain noTriton	SARS PLP yeast	MARV entry inh	NS1 function inh	Cruzain Triton	2A StopGo	RE007 growth inh	Lassa entry inh
O=C(c1cnc2sccn2c1=O)N(Cc1ccccc1)c1ccccn1	0%	-1%	nt	3%	-1.8%	2%	-6%	nt
O=S(=O)(Nc1ccccc1)c1ccc(NS(=O)(=O)c2c(F)cccc2F)cc1	nt	5%	-4%[46.1 µM]	-4%	nt	22%	-1%	-12%
O=C(CCCN1C(=O)CCC1=O)Nc1ccc2c(c1)OCCO2	6%	6%	?	1%	1.2%	19%	9%	14%
Cc1nn(C)c(NC(=O)c2ccc(Cl)cc2Cl)c1Br	nt	0%	nt	-3%	nt	-12%	4%	nt
COc1ccc(CCNC(=O)CSc2nc(=O)[nH]c3c2CCC3)cc1OC	nt	-4%	7%[46.1 µM]	nt	nt	2%	-6%	6%
CC(=O)Oc1c(S(=O)(=O)c2ccc(C)cc2)c(C)nn1-c1ccccc1	5%	2%	9%[46.1 µM]	-4%	1.7%	5%	4%	4%
Cc1ccc2cc(C#N)c(SCC(=O)NCC3CCCO3)nc2c1C (stereo not given)	-11%	-1%	nt	0%	4.4%	nt	nt	nt
COc1cc(C(=O)OCC(=O)NC2CCCC2)cc(OC)c1OC	nt	-3%	-11%[46.1 µM]	-3%	nt	-2%	-11%	?
O=C(COC(=O)c1ccccc1O)NCc1ccc2c(c1)OCO2	nt	0%	6%	nt	nt	-3%	23%	0%
Cc1cc(C)c(C)c(OCC(=O)O/N=C(\N)c2ccccn2)c1	2%	0%	-18%	-56%	-6.3%	-5%	-26%	?
CCOC(=O)c1c[nH]c2c(C)cc(C)cc2c1=O	1%	0%	3%	14%	3.2%	-8%	-2%	-1%
CC(C)n1c(CN2CCN(C(=O)c3ccco3)CC2)nc2c1c(=O)n(C)c(=O)n2C	nt	-1%	nt	4%	nt	-11%	9%	nt
CCCCn1c(N)c(N(Cc2ccccc2OC)C(=O)CSCC(=O)Nc2cccc(C)c2)c(=O)[nH]c1=O	nt	-6%	-15%[46.1 µM]	7%	nt	-6%	-4%	1%
CC(C)CCN1CC(C(=O)NCc2ccccc2)CC1=O (stereo not given)	-2%	2%	15%	-3%	12%	9%	2%	1%
COc1ccc(OC(C)C(=O)NCCC2=CCCCC2)cc1 (stereo not given)	nt	-1%	?	-4%	nt	-2%	5%	23%[46.1 µM]

# (continued)
mol	Cruzain noTriton	SARS PLP yeast	MARV entry inh	NS1 function inh	Cruzain Triton	2A StopGo	RE007 growth inh	Lassa entry inh
CCN1CCN(c2ccc(S(=O)(=O)N3CCOCC3)cc2NC(=O)/C=C/c2ccc(OC)cc2OC)CC1	nt	7%	?	nt	nt	4%	-21%	-23%[46.1 µM]
CCN(CC)CCN(Cc1cc2cc3c(cc2[nH]c1=O)OCO3)C(=S)NCC(C)C	nt	-1%	nt	3%	nt	?	14%	nt
CCc1ccc(NC(=O)C(C)OC(=O)c2c(C)nn(Cc3ccccc3)c2Cl)cc1 (stereo not given)	-4%	1%	-23%[46.1 µM]	-3%	-5.4%	?	6%	?
Cc1cccc(NC(=O)CN2C(=O)N/C(=C/c3cc(C)n(C(C)C)c3C)C2=O)c1	-20%	6%	?	26%	-3.5%	0%	3%	?
O=C(NC1CCCCC1)C1CCCN(S(=O)(=O)c2cnc[nH]2)C1 (stereo not given)	6%	-1%	nt	2%	1.4%	-8%	8%	nt
Nc1c(C(=O)Nc2cccc(C(=O)O)c2)sc2nc3c(cc12)CCCC3	nt	1%	?	12%	nt	6.3µM*	17%	3.2µM*
O=C(CCSc1ccc(Cl)cc1)NC12CC3CC(CC(C3)C1)C2	16%	3%	-9%	-67%	-4.4%	24%	-18%	0%
CCOC(=O)c1[nH]c2ccccc2c1NC(=O)NC1CCCCC1	18%	11%	20%	0%	0.3%	-16%	5%	5%
COc1cc(/C=C/C(=O)O)cc(S(=O)(=O)NC2CC2)c1OC	-3%	17%	12%	19%	-1.3%	10%	-5%	?
COc1cc(-c2nc3ccc(Cl)cn3c2Nc2ccc3c(c2)OCCO3)ccc1O	?	nt	-17%[46.1 µM]	nt	-9.7%	-17%	nt	?

# Single entries from the entries so far.
# Value of Nc1c(C(=O)Nc2cccc(C(=O)O)c2)sc2nc3c(cc12)CCCC3 under SARS PLP yeast: 1%
# Value of CCOC(=O)c1[nH]c2ccccc2c1NC(=O)NC1CCCCC1 under Lassa entry inh: 5%
# Value of Cc1ccc2cc(C#N)c(SCC(=O)NCC3CCCO3)nc2c1C (stereo not given) under Cruzain Triton: 4.4%

# Next compounds.
mol	Cruzain noTriton	SARS PLP yeast	MARV entry inh	NS1 function inh	Cruzain Triton	2A StopGo	RE007 growth inh	Lassa entry inh
COc1ccccc1-c1c(C)oc2c(CN3CCOCC3)c(O)ccc2c1=O	nt	-1%	-7%	0%	nt	-8%	-8%	nt
CC1CCN(Cc2ccc(NC(=O)C3CCN(c4nnc(-n5cccc5)s4)CC3)cc2)CC1	18%	1%	-4%	-4%	-29%	-13%	-13%	nt
Cc1cc(C)nc(-n2nc(C)cc2NC(=O)c2cccc(S(=O)(=O)N3CCCCC3)c2)n1	-4%	-2%	3%	-3%	1.4%	nt	nt	nt
COc1cc(/C=N/NC(=O)c2cccnc2)ccc1OS(=O)(=O)c1ccc(F)cc1	?	-5%	-30%	-5%	-0.6%	-19%	-13%	3%
COc1ccccc1N1CCN(C(=O)c2coc(=O)c(Br)c2)CC1	nt	0%	5%[46.1 µM]	3%	nt	-13%	-9%	0%[46.1 µM]
COc1ccc(N2CCN(C(=O)CCc3c(C)nn(-c4ccc(N5CCCC5)nn4)c3C)CC2)cc1	-8%	nt	nt	nt	-1.3%	-18%	nt	-23%[46.1 µM]

# Ordered by heavy-atom count (rising): part of the list above.
mol	Cruzain noTriton	SARS PLP yeast	MARV entry inh	NS1 function inh	Cruzain Triton	2A StopGo	RE007 growth inh	Lassa entry inh
Cc1cc(C)nc(-n2nc(C)cc2NC(=O)c2cccc(S(=O)(=O)N3CCCCC3)c2)n1	-4%	-2%	3%	-3%	1.4%	nt	nt	nt
CC1CCN(Cc2ccc(NC(=O)C3CCN(c4nnc(-n5cccc5)s4)CC3)cc2)CC1	18%	1%	-4%	-4%	-29%	-13%	-13%	nt
COc1ccc(N2CCN(C(=O)CCc3c(C)nn(-c4ccc(N5CCCC5)nn4)c3C)CC2)cc1	-8%	nt	nt	nt	-1.3%	-18%	nt	-23%[46.1 µM]
